# TsaE inh: displaces an ADP probe from E. coli YjeE (TsaE) | Potency, µM | AID 605 | P0AF67 | purified YjeE, fluorescence polarisation of a bound ADP probe | 0.05% of 71,000 active; active = well fitted falling curve; inconclusive = weaker or top-dose-only fall, or a rising curve; inactive = flat or poorly fitted curve;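 further: top concentration of the series not given in the record; excess ADP was the control for the full effect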
#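 Purified YjeE (10 uM) with BODIPY Texas Red-labeled ADP probe (2 uM); compounds pin-transferred, 15 min at room temperature. Binding inhibition read as decreased fluorescence polarization; ADP titration as control.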
# Bst PK mod: alters activity of Bacillus stearothermophilus pyruvate kinase | partly purified Bacillus stearothermophilus pyruvate kinase, luminescence ATP production; ribose 5-phosphate activator present at AC10 | Potency, µM | 1.2% of 51,000 active; in the data active means potency below about 11 µM; inconclusive means mostly about 12 µM to 25 µM; inactive means weaker than that;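 the screen sought inhibitors and activators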;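 further: potency means the concentration at half of the fitted maximal effect; scaled between full activation by ribose 5 phosphate and full inhibition by luteolin; about four in five hits inhibit and the cells do not say which; series up to 57 µM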
# * = called active by the depositor; i = inactive; ? = inconclusive; nt = no result given.
nr	SMILES	TsaE inh	Bst PK mod
1	CC1=[N+]([O-])C(C)(C)C(C)N(O)C1=O (stereo not drawn)	i	>57
2	CCOC(=O)c1csc(NC(=O)CSc2nnnn2CC)n1	i	>57
3	CN1CCN(c2nc3c(c(=O)n(C)c(=O)n3C)n2CC(=O)C23CC4CC(CC(C4)C2)C3)CC1	i	>57
4	Nn1c(COc2ccccc2)nnc1SCc1cc(=O)[nH]c2ccccc12	i	>57
5	Cc1ccc(Cn2nnnc2CN2CCC(O)(c3ccc(F)cc3)CC2)cc1	i	>57
6	CCN(CC)S(=O)(=O)c1cc(C(=O)O)ccc1Cl	i	>57
7	c1nc(N2CCOCC2)c2cc(-c3ccoc3)ccc2n1	i	nt
8	CCc1nnc(NC(=O)CSc2nc3c(cc2C#N)CCC3)s1	i	nt
9	COc1ccc(C(=O)Nc2ccc(Cl)cn2)cc1Cl	i	nt
10	CC(=O)c1cccc(NC(=O)CC2Oc3ccc(C)cc3NC2=O)c1 (stereo not drawn)	i	nt
11	CC(C)CNC(=O)COC(=O)c1cc(S(=O)(=O)N2CCCCC2)ccc1N1CCOCC1	i	>57
12	Cc1c(C(=O)N2CCOCC2)[nH]c2c1C(=O)CC(c1ccccc1Cl)C2 (stereo not drawn)	i	>57
13	COC(=O)c1[nH]c2ccc(C)cc2c1NC(=O)CN1CCc2cc(OC)c(OC)cc2C1	i	>57
14	Fc1ccc(-c2nnc(CN3CCN(c4ncc(C(F)(F)F)cc4Cl)CC3)o2)cc1	i	>11
15	CCOC(=O)C1=C(O)CSC1=Nc1cccc(Cl)c1	i	nt
16	N[C@@H](Cc1cc(I)c(Oc2ccc(O)c(I)c2)c(I)c1)C(=O)O	nt	>11
17	CC(C)COc1ccc(C(=O)NC(CC(C)C)C(=O)O)cc1 (stereo not drawn)	nt	>26
18	COc1ccc(CN2CCN(C(=O)CN3C(=O)C4C5C=CC(C5)C4C3=O)CC2)c(OC)c1OC (stereo not drawn)	i	>57
19	COC(=O)c1ccc(C2C(C(=O)OC(C)C)=C(C)N=C3SCCC(=O)N32)cc1 (stereo not drawn)	i	nt
20	O=c1c(N2CCCCC2)coc2ccccc12	i	nt
21	CCOc1ccccc1C1CC(=O)Nc2cc3c(cc21)OCCO3 (stereo not drawn)	i	?
22	c1ccc(CCc2nc(-c3ccncc3)no2)cc1	i	>57
23	CC12CC(NC(=O)N1c1ccc(C(=O)N3CCN(c4ccc(F)cc4)CC3)cc1)c1ccccc1O2 (stereo not drawn)	i	>57
24	Cc1cccc2cc(C#N)c(SCC(=O)N3CC(=O)Nc4ccccc43)nc12	i	>57
25	COc1ccc(NS(=O)(=O)c2cccc3cccnc23)cc1	i	2.6*
26	C#CCSc1nnc(-c2cccc3ccccc23)o1	i	>57
27	Cc1sc2nc(C(C)Sc3nnc(C)n3-c3ccccc3)[nH]c(=O)c2c1C (stereo not drawn)	i	>57
28	COc1ccc(Br)cc1C(=O)Nc1cccc(-c2nnc(-c3ccco3)o2)c1	i	>57
29	COc1cc2c(cc1OC)CN(C(=O)c1ccc(OC)c(S(=O)(=O)N3CCOCC3)c1)CC2	i	>57
30	Cc1ccc2c(c1)CCCN2C(=O)c1ccc2c(c1)OCO2	i	>57
31	Cn1nnnc1SCC(=O)N1CCN(c2cccc(Cl)c2)CC1	i	>57
32	C=C(C)Cn1c(CCNC(=O)CCC)nc2ccccc21	i	>57
33	COc1ccc(-c2nnc(N)s2)cc1	i	nt
34	COC(=O)[C@@]1(Cc2ccc(F)cc2)[C@@H]2[C@@H](CC(=O)[C@H]2CC(=O)C(=O)N2CCCC2)CN1C(=O)c1ccccc1	i	nt
35	Cc1nc2nc3c(cn2n1)C(=O)CC(C)(C)C3	i	>57
36	O=C(c1ccccc1)N1CCN(Cc2ccccc2Br)CC1	i	>57
37	Cc1[nH]n(-c2ccccc2)c(=O)c1-c1ccccc1	i	nt
38	COc1ccc(-c2noc(CN3CCN(c4ccccc4)CC3)n2)cc1	i	nt
39	CC(NC(=O)Nc1nnc(C(F)(F)F)s1)N1C(=O)C2C3C=CC(C3)C2C1=O (stereo not drawn)	i	>57
40	CCc1nnc(NC(=O)CSc2nc(C)c3c(c2C#N)CCCC3)s1	nt	>26
41	O=C(Nc1ccon1)c1ccc2c(c1)OCO2	i	>57
42	COC(=O)c1ccccc1NC(=O)c1ccco1	i	nt
43	CC(=O)Nc1ccc(C)cc1NC(C)=O	i	>57
44	C=CCn1c(Cc2cccs2)nnc1SCC(=O)Nc1cccc(OC)c1	i	>57
45	O=C1C(=O)N(Cc2cccnc2)C(c2ccccn2)/C1=C(/O)c1ccc(Br)cc1 (stereo not drawn)	nt	>26
46	CN(C)c1ncc2nc(-c3ccccc3)c(=O)n(-c3ccccc3)c2n1	i	nt
47	CC(c1nnc(SCC(=O)NC(=O)NCc2ccco2)n1-c1ccc(Cl)cc1)N(C)C (stereo not drawn)	i	>57
48	CCOCCCNc1nc2c(c(=O)[nH]c(=O)n2C)n1CCCc1ccccc1	i	>57
49	CC(C)C(C(=O)OCC(=O)c1ccc2c(c1)NC(=O)CO2)N1C(=O)c2ccccc2C1=O (stereo not drawn)	i	>57
50	CN(C)CCCOC(=O)CCc1ccccc1	i	>57

# Going on with the list:
nr	SMILES	TsaE inh	Bst PK mod
51	C=CCOc1ccc2ccccc2c1CNc1ncn[nH]1	i	>57
52	Cc1nn(Cc2nc(-c3cccs3)no2)c(C)c1Br	i	nt
53	COc1cc(NS(=O)(=O)c2ccc(C)cc2)ccc1-n1cnnn1	i	>57
54	Cc1cccc(NC(=O)CSc2n[nH]c(-c3ccncc3)n2)c1	i	>57
55	COc1cc(C(c2sc3nc(C)nn3c2O)N2CCOCC2)cc(OC)c1OC (stereo not drawn)	i	nt
56	CCOC(=O)N1CCC(NC(=O)C(C)n2c3ccccc3c3cnn(C)c(=O)c32)CC1 (stereo not drawn)	i	>57
57	CCOc1ccc(-c2nc3n(c(=O)c2C#N)CCCS3)cc1	i	>57
58	CCc1ccc(C(=O)Nc2nnn(CC)n2)cc1	i	>57
59	CSc1nc2cc(S(=O)(=O)N3CCCCC3)ccc2s1	i	nt
60	CC1(C)CC(=O)C(CC2=C(O)CC(C)(C)CC2=O)=C(O)C1	i	>57
61	O=C(NCCN=C1NS(=O)(=O)c2ccccc21)c1ccc2nccnc2c1	i	>57
62	CCOC(=O)C(C)Oc1nc(Oc2ccccc2)nc(N(C)C)n1 (stereo not drawn)	nt	>26
63	COc1ccc2nc(SCC(=O)N(C)C3CCCCC3)c(C#N)cc2c1	i	>57
64	CCc1cc(=O)oc2c(C)c(O)c(CN3CCCCC3)cc12	i	>57
65	CCCC(=O)Nc1cc(OCC)c(NC(=O)NC2CCCCC2)cc1OCC	i	>57
66	O=C1OC2(c3ccccc3)C3CCCC2C13	i	>57
67	CCOC(=O)C(C#N)C(c1cccnc1)c1c(C)[nH][nH]c1=O (stereo not drawn)	i	>57
68	CCOC(=O)N1CCN(c2c(-c3ccc(C)c(C)c3)c(=O)c2=O)CC1	i	>57
69	CCOC(=O)N1CCN(C(=O)c2ccc(CN(c3ccccc3)S(C)(=O)=O)cc2)CC1	i	nt
70	C[C@@H](C(=O)O)c1ccc(C(=O)c2ccccc2)s1	i	nt
71	Cc1cc(C(=O)CSc2nnnn2C)c(C)n1-c1ccc2c(c1)OCCO2	i	>57
72	Cn1c(=O)c2[nH]c(-c3cccnc3)nc2n(C)c1=O	i	>57
73	Cc1cc(C)c(C#N)c(N2CCN(Cc3ccc4c(c3)OCO4)CC2)n1	i	>57
74	CCc1nc(N)c(C#N)c(-c2ccncc2)c1C	i	>57
75	CCCC(=O)NCCc1cc2cc(C)c(C)cc2[nH]c1=O	i	>57
76	COc1cccc(-c2cncnc2Nc2ccc(F)cc2)c1	i	nt
77	Cc1nc2c(C(=O)NCc3ccc4c(c3)OCO4)c[nH]n2c(=O)c1Cl	i	i
78	COc1cccc(CNc2nc3nc(C)cc(C)n3n2)c1	i	>57
79	Cc1ccc(NCc2nnc(SCC(=O)N3CCCCC3)n2CC2CCCO2)c(C)c1 (stereo not drawn)	i	>57
80	O=C(NCc1ccc2c(c1)OCO2)c1c[nH]c2ccc(S(=O)(=O)N3CCOCC3)cc2c1=O	i	>57
81	COc1ccc2cc(C(=O)NC3CCCCC3)c(=O)oc2c1	i	>57
82	CCCc1[nH]n(-c2nc3ccccc3s2)c(=O)c1C=NCCN1CCOCC1	nt	>26
83	Cc1nn(-c2ccccc2)c2[nH]c(=O)c(CNCc3ccc4c(c3)OCO4)cc12	i	>57
84	COc1ccc(Cl)cc1NC(=O)CCn1cnc2ccccc2c1=O	i	>57
85	Cc1cc(NC(=O)c2cc(-c3cccs3)on2)nn1Cc1ccc(Cl)cc1	i	>57
86	CCCCN(C)Cc1c(C)[nH]c2ccc(Cl)cc2c1=O	i	>57
87	Cn1c(Cn2c(=O)sc3ccccc32)nnc1SCC(=O)NCCc1ccccc1	i	nt
88	Cc1cc(NC(=O)CSc2nc3ccccc3c(=O)n2C2CCCC2)no1	i	>57
89	CC1CCN(C(=O)CSc2ccc3nnc(-c4ccc(F)cc4)n3n2)CC1	i	>57
90	C(#Cc1ccccc1)Cn1nnc2ccccc21	i	nt
91	N#Cc1cccc(-c2ccc3ncnc(NC4CCNCC4)c3c2)c1	i	nt
92	Cc1onc(-c2ccccc2Cl)c1C(=O)Nc1ccccc1C(N)=O	i	nt
93	O=C(c1ccc(Cl)cc1)N1CCN(C(=O)c2ccco2)CC1	i	nt
94	COc1ccc(-c2cc(C(=O)Nc3c(C)nn(Cc4ccccc4Cl)c3C)no2)cc1OC	i	>57
95	CCN1CCC[C@@H]1CNC(=O)c1c(OC)ccc(I)c1O	i	nt
96	Cc1cccc(Cn2c(SCCO)nc3c2c(=O)n(C)c(=O)n3C)c1	i	>57
97	CCCCn1c(=O)n(C)c(=O)c2c3c(sc21)COC(C)(C)C3	nt	>26
98	CCSc1ccccc1C(=O)Nc1cccnc1	i	>57
99	O=C(NCC(F)(F)F)Nc1cccnc1	i	>57
100	CCOc1ccc(N(CC(=O)N2CCc3ccccc32)S(=O)(=O)c2c(C)noc2C)cc1	i	nt

# (cont.)
nr	SMILES	TsaE inh	Bst PK mod
101	c1ccc(C(c2nnnn2Cc2ccco2)N2CCN(C3CCCC3)CC2)cc1 (stereo not drawn)	i	>57
102	COc1cccc(-c2cc(NCc3cccs3)ncn2)c1	i	nt
103	COC(=O)c1ccccc1S(=O)(=O)NC(=O)c1ccccc1	i	>57
104	Cc1noc(NS(=O)(=O)c2ccc(NC(=O)COc3ccc(Cl)cc3Cl)cc2)c1C	i	nt
105	Cc1ccc(C)c(N2CCN(C(=O)c3ccc(Cn4c(=O)[nH]c5ccccc5c4=O)cc3)CC2)c1	i	>57
106	C=CCOc1ccccc1/C=c1\sc2nc(-c3oc4ccccc4c3C)nn2c1=O	i	>57
107	Cc1cc(C)c2c(n1)nn1c(C)c(CCC(=O)NCc3ccco3)c(C)nc21	i	nt
108	CN(C)c1ccc(CNC23CN4CN(CN(C4)C2)C3)cc1	i	>57
109	Cc1cc(=O)c2n(Cc3ccc(Cl)cc3)nc[n+]2[nH]1	i	>57
110	COc1ccc(OC)c(N(CC(=O)NCCSc2ccccc2)S(C)(=O)=O)c1	i	nt
111	Cc1ccc(C)c(N2C(=O)CC(N3CCN(Cc4ccc5c(c4)OCO5)CC3)C2=O)c1 (stereo not drawn)	i	nt
112	Nc1cccc2cnccc12	i	>57
113	O=c1c2cnn(-c3ccccc3)c2ncn1/N=C/c1ccncc1	i	>57
114	O=S(=O)(Nc1cccc2ncccc12)c1cccs1	i	?
115	c1ccc(N2CCN(Cc3ccnc4ccccc34)CC2)cc1	i	nt
116	CNC(=O)C1CC(=O)N(Cc2ccc3c(c2)OCO3)C(=Nc2ccc(OC)cc2)S1 (stereo not drawn)	i	>57
117	O=C(NCc1cccs1)c1cccc(N2CCCC2=O)c1	i	>57
118	Cn1c(CN2CCCC2)nc2cc(NS(=O)(=O)c3ccccc3)ccc21	i	>57
119	C=C(C)CSc1nc2ncccc2[nH]1	i	>57
120	Cc1cc(C)nc(Nc2n[nH]c(COc3ccccc3)n2)n1	i	>57
121	O=C(Nc1cnc2ccccc2c1)c1cccnc1	i	nt
122	O=C(Nc1ccc(N2CCCC2)c(Cl)c1)c1ccc(Br)o1	i	nt
123	COc1ccc(CN2CCNC(=O)C2CC(=O)O)c(OC)c1 (stereo not drawn)	i	nt
124	COc1ccc(-c2nnc(SCC(=O)N3CCN(c4ccccc4)CC3)o2)cc1OC	i	nt
125	CCOC(=O)C1CCN(C(=O)C2CCN(S(=O)(=O)CC)CC2)CC1	i	>57
126	O=C(CN1CCN(C(c2ccccc2)c2ccccc2)CC1)NC(=O)NCc1ccco1	?	>57
127	CC(=O)SC(C)CC(=O)Nc1ccccc1 (stereo not drawn)	i	nt

# Screening data deposited in PubChem by National Center for Advancing Translational Sciences (NCATS).

# A portion of the library; rates above refer to the full screens.
